HCMV UL50-53 inh – disrupts HCMV UL50-UL53 complex binding | HTRF UL50-UL53 interaction, normalized percent inhibition | inhibition, % (test concentration not listed) | 0.15% of 190,000 active;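 active means both replicates at 50% or more, plus weaker picks with an unusually low signal ratio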;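 further: stock transfer was 100 nL into about 20 µL; 0% = negative control wells and 100% = wells with untagged competitor protein; inactives centre near -12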
Sa growth inh – blocks Staphylococcus aureus growth | S. aureus RN4220 growth, OD600, 20 h, 42 °C; stronger effect = lower value | relative growth, % (concentration not given with the values) | 0.53% of 170,000 active;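 active means growth at 42 °C up to 50% and 20 or more points under that at 30 °C, or under 10% at both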;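 further: 300 nL library stock went into each well; scaled to the means of positive and negative controls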
GIV-Gai inh – blocks GIV peptide binding to rat Galpha-i3; P08753; Galpha-i3/FITC-GIV peptide fluorescence polarization, 90 min; stronger effect = lower value; scaled: aluminum fluoride 0%, vehicle 100%; percent of control (FP), % (concentration not given with the values); 0.42% of 210,000 active; AID 1224905;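 active means replicate mean at 85% of control or lower, very high polarization wells dropped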;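 further: wells of about 15 µL received 100 nL stock; the first replicate is given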
Target sequence (P08753 whole entry, looked up): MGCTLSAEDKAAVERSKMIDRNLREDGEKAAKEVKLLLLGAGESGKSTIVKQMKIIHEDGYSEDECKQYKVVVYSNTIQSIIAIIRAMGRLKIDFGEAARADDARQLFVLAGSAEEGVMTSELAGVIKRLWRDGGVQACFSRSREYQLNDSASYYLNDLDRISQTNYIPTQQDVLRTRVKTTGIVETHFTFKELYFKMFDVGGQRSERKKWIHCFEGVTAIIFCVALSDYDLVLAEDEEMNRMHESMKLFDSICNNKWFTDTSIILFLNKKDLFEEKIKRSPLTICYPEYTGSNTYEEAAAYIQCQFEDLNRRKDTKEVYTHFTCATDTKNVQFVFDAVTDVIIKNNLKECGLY
Sa growth inh second temp – second read-out of Sa growth inh, no call of its own (marks repeat the call); relative growth, %; measured here: growth at 30 °C;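 optical density after 20 h as mean of two plates; 100% = untreated growth and lower means inhibition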
Starred values were filed as active, the others as inactive; . = no result given; & = joins results of further samples. Random draw from the library, and some 0.8% of all compounds hit somewhere here.

Fields: HCMV UL50-53 inh	Sa growth inh	Sa growth inh second temp	GIV-Gai inh
> CCCNC(=O)N1CC(CC)Oc2ccccc21 (stereo unspecified)
 : 8	107	104	113
> COC(=O)c1ccccc1NC(=O)N1CCC(N2CCN(Cc3ccc(F)cc3)C(=O)C2=O)CC1
 : .	87	94	105
> c1ccc(C(CN2CCOCC2)c2ccccc2)cc1
 : -10	102	104	106
> CCN(CC)C(=O)Cn1cc(SCc2ccccc2)c2ccccc21
 : .	117	94	103
> O=C(COC(=O)C1CCCCC1)Nc1cc(Cl)cc(Cl)c1
 : -30	129	82	.
> CCOC(=O)c1c(NC(=O)CS(=O)(=O)c2ccc(C)cc2)sc2c1CCCCC2
 : .	101	100	102&104
> COC(=O)C1=C(N)OC2=C(C(=O)CC(C)(C)C2)C1c1ccc(Br)cc1 (stereo unspecified)
 : -14	.	.	103
> COC(=O)c1ccc(NC(=O)CN2CCN(S(=O)(=O)c3ccc(Br)cc3)CC2)cc1
 : .	126	79	99
> Cc1nc2ccc(F)cc2c2c1CCN2c1ccc(Cl)cc1
 : -111	102	89	102
> NC(=O)C1CCN(C(=O)c2ccc(C(F)(F)F)cc2)CC1
 : -11	87	93	.
> CCOc1ccc(NC(=O)N2CC(C)OC(C)C2)cc1 (stereo unspecified)
 : .	90	93	104
> CC(Cc1ccccc1)Nc1nc2c(S(=O)(=O)c3ccccc3)nnn2c2ccsc12 (stereo unspecified)
 : 6	.	.	103
> Cc1nn(CN2CCCC2c2cccs2)c(C)c1S(=O)(=O)N1CCCCC1 (stereo unspecified)
 : -24	97	93	.
> CC(=Nc1ccc(C(=O)O)cc1)c1cc2c(=O)n(C)c3ccccc3c2oc1=O
 : -4	109	84	.
> Cc1ccc(NC(=S)N(Cc2ccco2)Cc2cc3cc(C)c(Cl)cc3[nH]c2=O)cc1
 : -18	122	101	109
> COc1ccc(-c2nc(CCNC(=O)COc3ccc(C(C)C)cc3)cs2)cc1
 : -1	.	.	98
> CC(C)C1CCC(C)C(C(O)c2ccc(-c3ccccc3)cc2)C1=O (stereo unspecified)
 : .	89	98	102
> Cc1cc(C)cc(NC(=O)N(CCC#N)Cc2ccccc2)c1
 : 0	101	93	104
> CC(=O)c1ccc(NC(=O)c2cn(C)c(=O)c3ccccc23)cc1
 : 15	88	88	105
> O=C(NCc1cc(F)cc2c1OCOC2)c1sc2ccccc2c1Cl
 : -16	99	86	104
> Cc1cc2c(cc1S(=O)(=O)N1CCc3ccccc31)n(C)c(=O)c(=O)n2C
 : -20	103	81	103
> Cc1ccc(CN2CCCn3nc(C(=O)NCc4cc(C)ccc4C)cc3C2=O)cc1
 : .	110	89	98
> CCC(=O)Nc1ccc2nc(SCc3nc4ccccc4[nH]3)sc2c1
 : -12	98	76	111
> CCOC(=O)c1c(C)[nH]c(CCC(=O)NCc2ccc(OC)cc2OC)c1C
 : .	99	87	105
> CCOC(=O)C1=C(C)NC(=O)NC1c1cn(-c2ccccc2)nc1-c1ccc(OCC)cc1 (stereo unspecified)
 : -26	107	83	109
> CCc1ccc(CC(=S)N2CCOCC2)cc1
 : .	108	93	102
> CCc1ccc(NC(=O)NCC(c2cccnc2)c2c[nH]c3ccccc23)cc1 (stereo unspecified)
 : -10	.	.	98
> CCCCOc1ccc(-c2cc3c(=O)n(CC(=O)Nc4ccc(C)cc4)ccn3n2)cc1
 : -4	.	.	95
> COc1ccc(Oc2c(C(F)(F)F)oc3cc(OC(=O)C4CCCO4)ccc3c2=O)cc1 (stereo unspecified)
 : -11	.	.	97
> COCCCNS(=O)(=O)c1cc(-c2ccc(=O)[nH]n2)ccc1Cl
 : -51	.	.	106
> O=C(OCC(=O)N1CCCC1)c1ccc(OC(F)(F)F)cc1
 : 5	121	98	.
> O=c1[nH]nc(CSCc2csc(-c3ccccc3)n2)[nH]1
 : .	100	86	101
> O=C(NCc1ccc(-c2cccs2)s1)c1c(Cl)cccc1Cl
 : -28	73	65	106
> Cc1ccc(CCNc2ncnc3onc(-c4ccc(Cl)cc4)c23)cc1
 : -12	108	86	107
> Cc1cc(C)c2c(=O)[nH]c(SCc3ccccc3C)nc2n1
 : .	117	97	109
> Cc1cccc(NC(=O)Cn2cc(S(=O)(=O)c3ccc(F)cc3)c(=O)c3cc4c(cc32)OCO4)c1
 : -4	83	101	109
> CCn1cc(C(=O)N2CCN(c3cc(C)ccc3C)CC2)c(=O)c2cc(S(=O)(=O)N3CCOCC3)ccc21
 : -13	102	88	97
> COc1ccc(Nc2c(-c3ccsc3)nc3nc(C)cc(C)n23)cc1
 : 4	112	71	106
> Cc1nc2sc(C(c3ccccc3Cl)N(C)Cc3ccccc3)c(O)n2n1 (stereo unspecified)
 : 6	19	15	105
> Cc1ccc(Sc2oc(/C=N/n3cnnc3)cc2Br)cc1
 : -19	105	98	103
> CN1CCC(OC(=O)c2ccc3c(c2)OCCO3)CC1
 : -12	109	94	.
> CC(=O)Nc1ccc(C(=O)NC(=NCc2ccncc2)Nc2cccc(C(C)C)c2)cc1
 : -30	.	.	104
> c1ccc2c(c1)CCN2c1nc2ccccc2n2cnnc12
 : .	100	88	104
> Cc1cccc(OCCn2c(=O)sc3ccccc32)c1
 : -20	105	96	101
> CC(Sc1nc2ccccc2s1)C(=O)N1CCOCC1 (stereo unspecified)
 : -13	105	92	.

Seven entries out of the list, arranged by count of non-hydrogen atoms, low to high.
Fields: HCMV UL50-53 inh	Sa growth inh	Sa growth inh second temp	GIV-Gai inh
> CC(Sc1nc2ccccc2s1)C(=O)N1CCOCC1 (stereo unspecified)
 : -13	105	92	.
> Cc1ccc(Sc2oc(/C=N/n3cnnc3)cc2Br)cc1
 : -19	105	98	103
> O=C(OCC(=O)N1CCCC1)c1ccc(OC(F)(F)F)cc1
 : 5	121	98	.
> COc1ccc(Nc2c(-c3ccsc3)nc3nc(C)cc(C)n23)cc1
 : 4	112	71	106
> Cc1ccc(CCNc2ncnc3onc(-c4ccc(Cl)cc4)c23)cc1
 : -12	108	86	107
> CC(=O)Nc1ccc(C(=O)NC(=NCc2ccncc2)Nc2cccc(C(C)C)c2)cc1
 : -30	.	.	104
> Cc1cccc(NC(=O)Cn2cc(S(=O)(=O)c3ccc(F)cc3)c(=O)c3cc4c(cc32)OCO4)c1
 : -4	83	101	109

Further compounds
Fields: HCMV UL50-53 inh	Sa growth inh	Sa growth inh second temp	GIV-Gai inh
> CC1=Nc2ccccc2/C1=C/c1c(O)n(-c2ccc(Br)cc2)c(=O)[nH]c1=O
 : -13	.	.	125
> N#Cc1ccccc1CSc1nc2ccccc2s1
 : -17	103	91	.
> COc1ccc(CC(=O)Nc2nc3c(s2)CC(C(C)(C)C)CC3)cc1 (stereo unspecified)
 : -12	92	59	100
> Cc1noc(-c2ccc(N3CCCCC3)c([N+](=O)[O-])c2)n1
 : -81	103	84	103
> COc1ccc(CCn2c(-c3ccco3)nc3ccccc3c2=O)cc1OC
 : -24	101	98	103
> CCN(CC)CCn1c(NCc2ccc(Br)cc2)nc2ccccc21
 : -16	.	.	98
> Cc1ccc(-c2nnc(N3CCCCC3)c3ccccc23)cc1C
 : .	101	93	97
> COc1cccc(NC(=O)N2CCC3(CC2)CC(=O)c2ccccc2O3)c1
 : -9	.	.	106
> Cc1nc2ccc(S(=O)(=O)NCC(=O)NC3CCC(C)CC3)cc2s1 (stereo unspecified)
 : 2	109	90	107
> Cc1cc(N2CCN(Cc3ccccc3)CC2)n2ncc(-c3ccc(F)cc3)c2n1
 : -4	.	.	103
> Cn1c(=O)c2sccc2n2c(CCC(=O)NCc3ccc(F)cc3)nnc12
 : 14	103	94	102
> COc1ccc(C(=O)NC2CCN(Cc3c(F)cccc3Cl)CC2)cc1OC
 : -2	101	94	105
> Cc1cccc2c1cnn2C(=O)CCC(=O)N1CCc2ccccc2C1
 : -23	.	.	104
> COc1ccc(CNC(=O)c2ccc(CN3CC(=O)N4CSCC4C3=O)cc2)cc1 (stereo unspecified)
 : 6	.	.	102
> COc1ccc(Cc2nnc(C(=O)N3CCN(c4ccccc4OC)CC3)o2)cc1OC
 : .	102	99	107
> O=C(Cn1ncc2ccccc21)Nc1ccccc1Br
 : -4	97	83	105
> COc1ccc(CN2CCC(C(=O)O)CC2)cc1
 : -26	86	83	104
> COc1ccc(C2CC(c3c(O)n(C)c(=S)n(C)c3=O)=NN2C(C)=O)cc1OC (stereo unspecified)
 : -12	.	.	99
> CCOc1cc(C(=S)N2CCCC2)ccc1OCc1ccccc1F
 : .	102	83	101
> O=C1/C(=C\c2cc(Br)c(O)c([N+](=O)[O-])c2)SC(=S)N1c1ccc([N+](=O)[O-])cc1
 : 16	.	.	123
> O=C1CC(=O)c2ccc3c4c(ccc1c24)C(=O)CC3=O
 : -46	136	77	74*
> O=c1oc2cc(O)cc(O)c2c2c1CCCC2
 : -5	.	.	96
> O=C(CCCN1C(=O)c2cccc3cccc(c23)C1=O)N1CCN(c2ccc(F)cc2)CC1
 : -60	.	.	100
> O=C(O)c1ccc(NS(=O)(=O)c2ccc3c4c(cccc24)C(=O)N3)cc1
 : .	107	94	104
> CCCCNc1nc2ccccc2n1CC(N)=O
 : -5	100	97	.
> COc1ccc(S(=O)(=O)NCCc2csc3nc(-c4ccc(OC)c(OC)c4)nn23)cc1C
 : .	111	84	100
> CCOC(=O)c1noc2ncn(CC(=O)OC)c(=O)c12
 : 15	.	.	105
> CCc1cccc(-n2nnc(-c3nsc(NC(=O)c4cccc(OC)c4)n3)c2C)c1
 : .	99	81	98
> O=S(=O)(Cc1ccccc1)c1cnc2ccccc2n1
 : -41	.	.	106
> COc1ccc2cc(CNc3ccccc3)c(=O)n(CC(=O)Nc3ccc(C(C)=O)cc3)c2c1
 : .	100	89	103

Single records, as listed above:
O=C(Cn1ncc2ccccc21)Nc1ccccc1Br reads HCMV UL50-53 inh = -4; Sa growth inh = 97; Sa growth inh second temp = 83; GIV-Gai inh = 105
CCOc1cc(C(=S)N2CCCC2)ccc1OCc1ccccc1F reads HCMV UL50-53 inh = .; Sa growth inh = 102; Sa growth inh second temp = 83; GIV-Gai inh = 101

Next records follow:
Fields: HCMV UL50-53 inh	Sa growth inh	Sa growth inh second temp	GIV-Gai inh
> CCc1c(C)nc2nncn2c1Nc1ccc(Cl)cc1
 : -8	108	84	105
> COC(=O)C1=C(C)Nc2[nH]ncc2C1c1ccccc1 (stereo unspecified)
 : -9	112	72	99
> O=C(O)C1C2C3C=CC(C3)C12 (stereo unspecified)
 : -25	105	103	102
> CN(C)c1ncc(C(=O)Nc2cccc(Cl)c2)cn1
 : -2	.	.	103
> O=C(NCc1ccccc1)c1cccc(NC(=O)c2nnc(COc3ccccc3)s2)c1
 : -4	.	.	106
> CCOc1ccc2oc(C)c(C(=O)Nc3cccc(OC)c3)c2c1
 : 2	.	.	103
> COc1ccc(C2=NN3C(=O)c4c(ccc(OC)c4OC)C3C2)cc1 (stereo unspecified)
 : -92	101	78	102
> NCc1cc(C2CC2)n[nH]1
 : -22	91	84	104
> COc1ccc(Cl)cc1NC(=O)C1CCN(S(=O)(=O)c2ccc3c(c2)CC(C)N3C(C)=O)CC1 (stereo unspecified)
 : .	116	95	105
> O=C(CSc1c2c(nc3cc(Cl)ccc13)CCCC2)N1CCN(c2ccccc2F)CC1
 : -30	114	85	101
> Cc1ccc(N2CCN(C(=O)c3c(C)oc4ncn(CC(C)C)c(=O)c34)CC2)c(C)c1
 : .	112	84	109
> CCOC(=O)c1c(C)[nH]c(C)c1S(=O)(=O)N1CCC(C(=O)N2CCN(c3cccc(C)c3)C(C)C2)CC1 (stereo unspecified)
 : .	108	102	109
> O=C(O)c1cc(-c2ccccc2)c(C(F)(F)F)s1
 : 1	80	78	98
> CCOc1cc2c(cc1OCC)C(CC(=O)OC)N(C(=O)Nc1cc(C)cc(C)c1)CC2 (stereo unspecified)
 : .	93	87	100
> Cn1c(O)c(C=Nc2cccc3ccccc23)c2ccccc21
 : .	115	103	90
> CC1(C)C2CC[C@](C)(C2)C1NC(=O)C1CCCCC1 (stereo partly specified)
 : -2	101	82	100
> CCN1C(C(=O)c2ccccc2)=C(OC(=O)CN2C(=O)CCC2=O)c2ccccc2S1(=O)=O
 : 13	.	.	99
> CCCCC1CCC(C(=O)Nc2ccc3c(c2)NC(=O)CO3)CC1 (stereo unspecified)
 : -2	.	.	101
> CCc1nc2ccccc2c(C(=O)OCC(=O)Nc2ccc(S(=O)(=O)N3CCOCC3)cc2)c1C
 : -33	100	91	.
> CCc1ccc(C(=O)CN2C(=O)CN(C)C2=O)cc1
 : -20	103	95	.
> CCOC(=O)c1c(NC(=O)c2ccc(OC)cc2)sc(C(=O)Nc2cc(C(F)(F)F)ccc2Cl)c1C
 : -15	.	.	96

Screens (PubChem BioAssay)
